CapD inh = Bacillus anthracis CapD inhibitors, primary screen, biochemical, fluorescence intensity; CapD gamma-glutamyltranspeptidase (Bacillus anthracis Ames Ancestor); purified CapD enzyme, fluorescence intensity read-out; hits give low values; some hits fall short of the stated cut; z-score (test concentration not listed); actives 0.23% (n = 140,000);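 active = z-score under -4 in either of two replicates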;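 note: stock transfer was 100 nL into about 40 µL; score is relative to mean and spread of the plate; one replicate is shown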
AID504770 = growth inhibition of E. coli YBA685, primary screen, V. cholerae RctB inhibitors; AID 504770, 2011; z-score (no concentration beside the values); actives 0.27% (n = 130,000); E. coli YBA685 rctB-dependent plasmid, OD600 growth, 3 h; hits give low values;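 active = z-score under -2 on both plates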;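 note: wells of about 30 µL received 100 nL stock; score is relative to mean and SD of the test wells; the first replicate is given; strong numbers were not always called active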
* = called active by the depositor; . = no result given; & = joins results of further samples. Rows are unselected (roughly 0.37% active in at least one column).

SMILES	CapD inh	AID504770
Cc1cn(C2CC(OC(=O)c3ccccc3)C(COC(=O)c3ccccc3)O2)c(=O)[nH]c1=O (configuration not stated)	-0.51	.
COC(=O)C1=C(C(=O)OC)SC(=C2C(=S)C(C)(C)N(C(=O)COc3ccccc3)c3ccc(OC)cc32)S1	-0.6	.
CC1Cc2ccccc2N1C(=O)COc1ccccc1C#N (configuration not stated)	21	-0.95
Cc1c(C(=O)O)sc2nc(C(F)(F)F)nn12	0.15	-1.1
CCN1CCN(C(=O)C2CCC(CNS(=O)(=O)c3ccc(NC(C)=O)cc3)CC2)CC1 (configuration not stated)	0.095	-0.2
Cc1cc2cc(CNC(=O)CCC(=O)O)ccc2[nH]1	0.21&1.2	-0.55&0.3
NCC1OC(OC2C(N)CC(N)C(O)C2O[C@@H]2O[C@H](CO)[C@H](O)C2O)C(N)C(O)C1O (some centres not stated)	0.7	.
O=C(CC1Oc2ccccc2NC1=O)NCc1ccccc1 (configuration not stated)	-0.5	-0.95
COc1ccccc1CCNC(=O)c1ccc(C)o1	0.16	-0.95
COc1cccc(C2CC(c3ccc(Br)cc3)=NN2C(=O)CCC(=O)O)c1OC (configuration not stated)	-0.73	.
C=CCn1cc(/C=C2\SC(=O)N(C)C2=O)c2ccccc21	.	-0.6
O=C1c2ccccc2C(=O)C1c1cc(=O)[nH]c2ccccc12	.	-0.65
O=C(COc1ccc(S(=O)(=O)N2CCOCC2)cc1)NCc1ccccc1	-0.06	-0.85
CC(C)(CNS(=O)(=O)c1ccc(F)cc1)SCc1ccc(Cl)cc1	-0.33	.
COc1ccccc1CNS(C)(=O)=O	-0.24	1.7
CCOc1ccc(C2C(N3C(=O)c4ccc([N+](=O)[O-])cc4C3=O)C(=O)N2c2ccc(C)c(Cl)c2)cc1 (configuration not stated)	-0.36	.
COCCn1c(C)cc(C(=O)CSc2nc3ccc(C)cc3[nH]2)c1C	.	-0.45
CCC1(C)CC(CC(=O)O)(c2ccc(F)cc2)CCO1 (configuration not stated)	-0.38	.
CCN(c1ccc(OC)cc1)S(=O)(=O)c1ccc2c(c1)CCN2C(=O)CCC(=O)O	-0.04	0.5
Cc1nccn1CC(C)C(=O)O (configuration not stated)	0.54	-0.3
Cn1cnc2c1c(=O)n(Cc1ccc(Br)cc1)c(=O)n2C	0.3	.
CC12CC[C@H]3[C@@H](CCC4(O)C[C@H](O)CCC34/C=N/NC(=O)c3ccc(O)cc3)C1(O)CCC2C1=CC(=O)OC1 (some centres not stated)	-0.37	.
CCN(C(=O)COc1ccc(OC)cc1)C1CCCCC1	0.47	0.1
O=C1CN(C(=O)C2CC2)CCN1	-0.91	0
C=CCn1c(CCNC(=O)Cc2ccccc2)nc2ccccc21	-0.21	-0.55
SMILES	CapD inh	AID504770
COc1ccccc1NC(=O)Cc1csc(N)n1	0.22	-0.7
Cc1occc(=O)c1Oc1ncc(C(F)(F)F)cc1Cl	-0.43	-0.85
CCOC(=O)c1cc(NC(=O)CSc2nc(C)nc3sc4c(c23)CCC4)cc(C(=O)OCC)c1	0.17	.
COc1ccc(NC(=O)CSc2nc3c(sc(=S)n3-c3ccccc3C)c3nc4ccccc4n23)c(OC)c1	-0.26	.
CCN(CC)C(=O)c1cc2ccccc2cc1O	0.59	1.8
CCC1CC(C)(C(=O)Nc2ccc(S(N)(=O)=O)cc2)OC1=O (configuration not stated)	-0.54	2.5
S=c1n(CN2CCOCC2)nc(-c2cccs2)n1CC1CCCO1 (configuration not stated)	.	-0.35
CCOc1ccc(NC(=O)CSC2=C(C#N)C(c3ccc(F)cc3)CC(=O)N2)cc1 (configuration not stated)	-0.085	.
CNC(=O)COC(=O)c1cccs1	.	-0.15
CC1(C)CC(=O)C2=C(C1)N1C(=C(C#N)C2c2cccnc2)N=C(N)c2ccccc21 (configuration not stated)	-3.8	-0.55
Cc1nc(NC(=O)c2cnccn2)ccc1Br	0.34	.
CC(=O)Nc1ccc(Oc2cc(C#N)c(C#N)cc2N2CCCCCC2)cc1	0.72	0.65
O=C1OC2(c3ccc(Br)cc3)C(OC(=O)C23CCCC3)C12CCCC2 (configuration not stated)	-0.16	0.15
N#Cc1ccccc1NC(=O)COC(=O)C12CC3CC(CC(C3)C1)C2	1	0.5
Cc1cccc(N(CC(=O)N2CCCC2)S(C)(=O)=O)c1	.	-0.5
COC(=O)C1=C(C(=O)OC)SC(=C2C(=S)C(C)(C)N(C)c3ccc(C)cc32)S1	0.34	.
CCOC(=O)C1=C(C)N=c2s/c(=C\c3ccc(OC(C)=O)c(OC)c3)c(=O)n2C1c1ccc(OC)cc1 (configuration not stated)	-0.035	.
COc1ccc(C(=O)O)cc1NCc1ccncc1	.	0.5
O=C(Cn1c(=O)sc2ccccc21)NCc1ccccc1	0.04	0
CN1CCC(OC(=O)c2cc3ccccc3oc2=O)CC1	34	0.05
COc1ccc(/C=C2\C=C(c3ccccc3)N(c3ccc(O)c(C(=O)O)c3)C2=O)cc1	0.47	.
O=C(NNC(=O)c1ccccc1NC(=O)c1c(F)cccc1F)OC/C=C/COCc1ccccc1	0.1	.
N#Cc1cnn(C(=O)c2cccs2)c1C1CC1	-0.41	-1.1
CCOc1ccc(-n2c(C)nc3cc(C(=O)NCCCN4CCOCC4)ccc32)cc1	0.56	.
O=CN/N=C/c1ccc(N2CCOCC2)s1	.	0.15
SMILES	CapD inh	AID504770
N#CNC(=Nc1ccccc1C(F)(F)F)N1CCCC1	-0.28	-0.25
CN(C)CCN(C)C1Cc2ccccc2C1	0.36	0.35
Cc1cc(/C=N/N2C(=O)c3ccccc3C2=O)cc(C)c1O	.	0.65
O=C1CC(c2nc3ccccc3n2CCc2ccccc2)CN1Cc1ccccc1 (configuration not stated)	0.32	-0.3
Oc1ccc(-n2nnnc2SCc2cc(F)cc(F)c2)cc1	-0.07	.
COCC(=O)Nc1c(C(=O)Nc2cccc(OC)c2)oc2ccccc12	-0.27	-0.75
CC(=O)CN1C(=O)c2ccccc2S1(=O)=O	-0.36	.
O=C(N1CCc2ccc(S(=O)(=O)NCCCCc3ccccc3)cc2C1)C(F)(F)F	-0.08	.
COC(=O)c1ccc(N2C(=O)CSC2c2ccc(Br)cc2)cc1 (configuration not stated)	-0.91	.
CC(C)Cc1nn(-c2ccccc2)cc1/C=C1\CCC(C2CCCC2)C1=O (configuration not stated)	-0.075	-0.9
COC(=O)c1cc(=O)n(CCc2ccccc2)c(=NCCc2ccccc2)s1	0.7	0.3
Cc1cc(=O)n2c(n1)OC(CO)C2 (configuration not stated)	.	-0.25
CN=c1scc(-c2[nH]c(C)c(C(=O)OC)c2C)n1C	.	-0.3
CN(C(=O)COC(=O)c1ccc(Br)c(S(=O)(=O)N2CCOCC2)c1)c1ccccc1	.	-0.8
Oc1ccc(CCc2n[nH]c(=S)n2-c2cccc(C(F)(F)F)c2)cc1	-0.27	.
Cc1cc(C)c(C(=O)NCCCN2CCOCC2)c(C)c1	1.9	0.4
Cc1onc(-c2ccccc2)c1CNC(=O)c1cc(F)cc2c1OCOC2	-0.05	-0.25
CCN(CC)c1ccc2cc(-c3nc(-c4ccc(Br)cc4)cs3)c(=Nc3ccc(Cl)cc3)oc2c1	-0.03	.
CC(C)(C)c1ccc(-c2nnc(-c3ccc(C(C)(C)C)cc3)o2)cc1	-0.045	.
O=C1CCC/C(=N/NC(=O)c2ccc(Cn3nnc(-c4ccccc4)n3)cc2)C1	.	-1.4
Cc1ccc(C(=O)Nc2nc3c(s2)CCCC3)cc1	0.44	0.1
CCN1C(=O)CC(c2ccccc2)S(=O)(=O)c2ccccc21 (configuration not stated)	-0.56	-0.1
Cc1n[nH]c(=O)nc1NCc1ccccc1	-0.44	-1.6
CCOC(=O)c1sc(N)c(C#N)c1COC(=O)c1c(CC)noc1C	.	-0.55
CCOc1ccc(/C(O)=C2\C(=O)C(=O)N(c3nccs3)C2c2ccc(C(C)(C)C)cc2)cc1 (configuration not stated)	-0.34	.

At a glance, 2 of the compounds above:
SMILES	CapD inh	AID504770
CCOC(=O)c1sc(N)c(C#N)c1COC(=O)c1c(CC)noc1C	.	-0.55
CCOc1ccc(/C(O)=C2\C(=O)C(=O)N(c3nccs3)C2c2ccc(C(C)(C)C)cc2)cc1 (configuration not stated)	-0.34	.

Next part.
SMILES	CapD inh	AID504770
COc1ccc(CCNC(=O)c2onc(C)c2Cl)cc1OC	-0.19	-0.15
CN(CC(=O)Nc1ccc(F)cc1)C(=O)Cc1coc2cc3c(cc12)CCC3	.	0.4
S=C1CCN(Cc2ccccc2)c2ccccc2N1	-0.71	-0.4
CCOC(=O)c1ccc(NC(=S)NC(C)c2ccc3c(c2)OCCO3)cc1 (configuration not stated)	0.58	0.6
Cn1ncc(I)c1C(=O)O	0.08	-0.55
CCOC(=O)c1ccc2c3c(onc13)-c1ccccc1C2=O	-0.35	.
N#Cc1c(/N=C/c2ccccc2)oc(-c2ccccc2)c1-c1ccccc1	0.41	.
Cn1ncnc1C(O)(c1c[nH]c2ccccc12)C(F)(F)F (configuration not stated)	.	-0.8
O=C(N(/N=C/c1ccccc1)c1ccccc1)C(O)(c1ccc(Cl)cc1)c1ccc(Cl)cc1	-0.19	.
CC1CCCC(C)N1C(=O)COC(=O)c1ccccc1O (configuration not stated)	0.1	-0.2
O=C1C2C3C=CC(C3)C2C(=O)N1N1CCCCC1 (configuration not stated)	0.22	-0.35
CCc1ccc(NS(=O)(=O)c2cnn(CC)c2)cc1	-0.41	-0.4
C(#CCN1CCCC1)CN1CCCC1	0.42	.
COc1ccc(Cc2nnc(N)s2)cc1OC	.	0.3
CCCn1c(=O)c(-c2nc3ccccc3c(=O)[nH]2)c(O)c2ccccc21	5.3	-0.95
CN(CCC#N)C(=O)c1nn(C)c2c1COc1ccccc1-2	0.68	-0.35
O=C(CSc1nnc(COc2ccccc2Cl)n1C1CC1)c1ccc(Cl)s1	.	-0.25
CSc1nnc(NC(=O)c2cc3ccccc3oc2=O)s1	-0.86	2
CC1CCN(S(=O)(=O)c2ccc(C(=O)NCCCN3CCCC3=O)cc2)CC1	.	0.05
NC(=O)C(c1ncc(C(F)(F)F)cc1Cl)c1c(Cl)cccc1Cl (configuration not stated)	-0.34	.
Cc1ccccc1-n1c(=S)sc2c1nc(SCc1c(F)cccc1Cl)n1c3ccccc3nc21	-0.11	.
O=P(O)(CN1CCOCC1)C1Cc2ccccc2C1	0.16	0.4
Cc1cccc(NC(=O)C2CCN(c3ccc(-c4cccs4)nn3)CC2)n1	0.89	-0.6
CN(C)/C=C/C(=N)SCc1c(Cl)cccc1Cl	-3.3	-1.4
CSC(SC)=C(C#N)S(=O)(=O)C(C)C	-1.2	.

Random excerpt: 2 compounds from above
SMILES	CapD inh	AID504770
CN(CC(=O)Nc1ccc(F)cc1)C(=O)Cc1coc2cc3c(cc12)CCC3	.	0.4
S=C1CCN(Cc2ccccc2)c2ccccc2N1	-0.71	-0.4

Compound profiles, as listed above. Values in the order: CapD inh, AID504770
Record of CNC(=O)COC(=O)c1cccs1 : ., -0.15
Record of Cn1ncc(I)c1C(=O)O : 0.08, -0.55
Record of COc1ccc(NC(=O)CSc2nc3c(sc(=S)n3-c3ccccc3C)c3nc4ccccc4n23)c(OC)c1 : -0.26, .
Record of N#CNC(=Nc1ccccc1C(F)(F)F)N1CCCC1 : -0.28, -0.25
Record of Cc1c(C(=O)O)sc2nc(C(F)(F)F)nn12 : 0.15, -1.1

Next part:
SMILES	CapD inh	AID504770
CC1=NN2C(=NC(=O)C(n3nnnc3C)C2c2ccccc2)O1 (configuration not stated)	.	0.05
Cc1nc2c3ccccc3n3c(CCCC(=O)O)nnc3n2n1	0.15	-0.6
COc1ccc(-c2c(C#N)c(N)nc(SC3CCCCC3=O)c2C#N)cc1 (configuration not stated)	1.5	.
Cc1csc2ncnc(N3CCCCC3)c12	0.14	0.95
Cn1cnc2c1c(=O)[nH]c(=O)n2C	-0.075&51	0.85
O=C(c1cccs1)N1CCN(c2cc(C(F)(F)F)nc3ccccc23)CC1	0.32	0.4
Fc1cccc(Cl)c1CN1CCN(c2nc3ccccc3s2)CC1	1.7	.
c1ccc(-c2[nH]ncc2CNCc2cccs2)cc1	-0.2	-1.1
c1ccc2c(-c3nnc(CN4CCCCC4)o3)cccc2c1	8.6	0.9
Cc1cccc(NC(=O)CCOc2ccccc2)c1	-1	1.7
COc1ccccc1N1C(=O)C=C(Nc2ccccc2)C1=O	-1.3	-0.4
Cc1cc2cc(C#N)c(N3CCOCC3)nc2cc1Cl	.	-0.05
CCOC(=O)c1ccccc1NC(=O)COC(=O)C(C)N=C1NS(=O)(=O)c2ccccc21 (configuration not stated)	.	-1.1
O=C(NCc1ccco1)N1c2ccccc2Sc2ccccc21	-0.075	1.9
Cc1cc(NNS(=O)(=O)CC23CCC(CC2=O)C3(C)C)nc2ccccc12 (configuration not stated)	.	-0.35
CCC(C)NC(=O)CSc1nc2c(sc(=S)n2-c2ccccc2C)c2nc3ccccc3n12 (configuration not stated)	-0.46	.
CCOC(=O)c1ccc(N=Cc2ccc(Cl)cc2)cc1	-0.3	-0.95
Fc1ccc(Nc2nc3nonc3nc2N2CCC(Cc3ccccc3)CC2)cc1	-0.82	.
O=C(NCc1ccccc1)NS(=O)(=O)c1ccccc1Cl	14	0
CCC(C(=O)NC1CCCc2ccccc21)n1nc(C)n2c(cc3sccc32)c1=O (configuration not stated)	-0.11	-0.45
CN(C)S(=O)(=O)N1CCC(C(=O)Nc2ccccc2)CC1	2.1	-0.05
